Bioassay records from PubChem BioAssay.
VDR inhibitor – vitamin D3 receptor (human) inhibition; VDR-SRC2-3 peptide fluorescence polarization, 2 h; Potency, µM, without a hit: max response, negative = inhibition, usual class: inhibitors; 0.93% of 400,000 active; active means well fitted inhibition curve with a large enough effect; inconclusive means small, poorly fitted or top-dose-only effect, or another doubt; inactive means no such curve, though single readings can be large or run the other way; further: series mostly up to about 120 µM
Target sequence (P11473 whole entry, looked up): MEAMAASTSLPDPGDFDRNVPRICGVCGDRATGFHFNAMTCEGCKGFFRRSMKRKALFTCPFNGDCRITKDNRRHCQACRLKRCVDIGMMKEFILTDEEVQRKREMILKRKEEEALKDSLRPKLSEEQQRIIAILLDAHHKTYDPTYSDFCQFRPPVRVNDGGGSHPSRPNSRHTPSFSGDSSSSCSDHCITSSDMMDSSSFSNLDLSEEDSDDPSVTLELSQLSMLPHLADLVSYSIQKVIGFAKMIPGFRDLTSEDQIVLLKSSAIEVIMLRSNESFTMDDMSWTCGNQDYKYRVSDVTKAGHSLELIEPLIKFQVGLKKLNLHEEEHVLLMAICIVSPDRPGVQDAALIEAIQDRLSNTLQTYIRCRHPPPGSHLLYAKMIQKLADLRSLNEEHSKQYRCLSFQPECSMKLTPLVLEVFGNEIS
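Inhibition of the VDR/SRC2-3 peptide interaction is quantified by fluorescence polarization. Compounds (23 nl, pintool) incubate with the reagents for 2 hours at ambient room temperature.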
Active calls of the source: *; ? = inconclusive; & = joins results of further samples; [ ] = remark or other dose. On the % scale 0 is the no-effect control and ±100 the full control effect; potency means the concentration at half of the fitted maximal effect. An excerpt; rates above refer to the full screens.

SMILES	VDR inhibitor
CCC1(c2ccccc2)NC(=O)N(CC(=O)NCc2ccc(OC)cc2)C1=O (centres undefined)	-11%
CCN1C(=S)N[C@@H](CCc2ccccc2)C(C(=O)OC)=C1C	0%
CCOC(=O)c1cc(-c2ccc(OC)c(S(=O)(=O)NCc3ccccc3Cl)c2)on1	-9%
Cc1c(C#N)c(O)n(C)c(=O)c1N=Nc1ccc(S(N)(=O)=O)cc1	4%
COc1c(C)cc(Br)cc1C(=O)O	2%
Cc1cc(C)c(NC(=O)COc2nncc3ccccc23)c(C)c1	-5%
O=C1[C@H](Cc2ccccc2)NCC=CC[C@H](c2ccc(Cl)cc2)N1Cc1ccc(Cl)cc1	-3%
O=C(NCCC1=CCCCC1)c1ccc(Cl)c(S(=O)(=O)N2CCCCC2)c1	19%
COc1ccc(CCNC(=O)CCCc2nnc3n(C)c(=O)c4sccc4n23)cc1OC	3%
CCOC(=O)C1CCN(C(=O)CN(Cc2ccccc2)S(C)(=O)=O)CC1	1%
CCOC(=O)Cn1cnc2c(C#N)c3n(c2c1=O)CCCCC3	7%
Cc1cc(=O)n(Cc2ccc(OC(C)C)cc2)c(=S)[nH]1	-10%
COC(=O)c1ccccc1NC(=O)c1cc2sccc2n1C	1%
CCCCC(CC)COC(=O)CCCCC(=O)OCC(CC)CCCC (centres undefined)	6%
Cc1cc(Br)ccc1N=C1NC(=O)CS1	-5%
O=C(Nc1ccc(Br)cc1)c1cccc(N2C(=O)CCC2=O)c1	1%
Cc1cccc(NC(=O)CSCC(=O)N2CCCc3ccccc32)c1	-6%
Cc1nc2ccsc2c(=O)n1-c1cccc(Cl)c1	5%
CN(CC(=O)Nc1ccccc1Br)C(=O)CNC(=O)C1CCCCC1	-14%
CCOC(=O)C(=O)NC12CC3CC(CC(C3)C1)C2	9%
COc1ccccc1C(CNC(=O)c1cc(S(=O)(=O)N2CCOCC2)ccc1C)N1CCCC1 (centres undefined)	6%
CC1CCc2sc(C(=O)N/N=C/C3CCCCC3)cc2C1 (centres undefined)	1%
CCC(=O)Nc1sc2c(c1C(=O)Nc1ccc(OC)cc1)CCC(C(C)(C)C)C2 (centres undefined)	-2%
CC(=O)N/N=C(\C)c1ccc(Br)cc1Br	3%
CCCCCCCCC(=O)NCCOc1ccccc1	-25%
The list goes on:
SMILES	VDR inhibitor
O=C(Cn1cc(C(F)(F)F)ccc1=O)N1CCN(S(=O)(=O)c2ccc(Cl)cc2)CC1	-11%
COc1ccccc1-c1cc(N)n(S(=O)(=O)c2cccc3nsnc23)n1	20%
CCCCN(C)C(=O)c1ccc(S(=O)(=O)N2CCOCC2)cc1	1%
COc1ccc(NC(=O)c2ccc3c(c2)S(=O)(=O)N=C2CCCCCN23)cc1S(N)(=O)=O	5%
COc1ccc(C(=O)C(C)[n+]2ccc(-c3nnc4n3CCCCC4)cc2)cc1 (centres undefined)	-8%
COc1ccc(Nc2nc(=O)c3cc([N+](=O)[O-])ccc3s2)cc1	6%
Cc1cccc(C(=O)Nc2ccccc2C(=O)OCc2cc(=O)n3nc(C4CC4)sc3n2)c1	5%
CCCCOc1ccc(C(=O)N(Cc2ccccc2)C2CCS(=O)(=O)C2)cc1 (centres undefined)	5%&-3%
Fc1ccccc1Cc1noc(CN2CCN(c3ccc(Cl)cn3)CC2)n1	-9%
CCOc1ccc(CNC(=O)Cn2nc(C)c3nn(-c4ccc(Cl)cc4)c(C)c3c2=O)cc1OC	17%
O=C(Nc1ccccc1)N1CCC(n2c(=O)[nH]c3ccccc32)CC1	-11%
O=C(NCC(=O)N(Cc1cccs1)C(C(=O)NC1CCCCC1)c1ccncc1)c1ccco1 (centres undefined)	-13%
CC(C)(C)C1=C(C#N)C(c2cccnc2)C(C#N)=C(N)O1 (centres undefined)	-22%
CN1/C(=C\C(=O)c2ccco2)c2ccccc2CC1(C)C	5%
OCC1CCCN1C(=S)Nc1ccccc1 (centres undefined)	-6%
COc1ccc(C2C3=C(CC(C)(C)CC3=O)Nc3c2c(=O)n(C)c(=O)n3C)cc1OC (centres undefined)	?
O=C(NC1CC2CCC1C2)C1CCN(S(=O)(=O)c2ccc(-c3nn[nH]n3)cc2)CC1 (centres undefined)	2%
Cc1nc(-c2cccnc2)sc1C(=O)Nc1cccc(C(F)(F)F)c1	0%
CN1CCN(C(=S)NC(=O)/C=C/c2ccccc2Cl)CC1	-12%
CCOC(=O)CSc1nnc(-c2cc(OC)c(OC)c(OC)c2)o1	2%
CC(=O)c1cccc(NC(=O)C2CCN(C(=O)c3ccc([N+](=O)[O-])cc3)CC2)c1	4%
COc1ccc(C(c2c(N)[nH]c(=S)[nH]c2=O)c2c(N)[nH]c(=S)[nH]c2=O)cc1	-23%
Cn1cc(CN2CCCCC2C(=O)Nc2ccc(-n3cccn3)cc2)cn1 (centres undefined)	-15%
CC(C)CCn1nnnc1C(c1ccc(F)cc1)N1CCC(C(N)=O)CC1 (centres undefined)	-8%
COc1cccc(CSc2nc3n(n2)C(c2cccc(F)c2)C(C(=O)Nc2ccccc2C)=C(C)N3)c1 (centres undefined)	14%
Additional records follow:
SMILES	VDR inhibitor
CC1CCN(CCCNC(=O)COc2cc(=O)n(C)c3ccccc23)CC1	0%
CCCCC1=CC2=CC(=O)C(C)(OC(=O)c3ccc(Cl)nc3)C(=O)C2=CO1 (centres undefined)	-26%
Cc1ccc(CS(=O)Cc2ccc(C(=O)N3CCN(C4CCCCC4)CC3)o2)cc1 (centres undefined)	10%
COc1ccc(/C=C/C(=O)c2cc(F)ccc2OC(=O)c2ccccc2)cc1OC	40µM*
O=C(COC(=O)c1cc(-c2ccccc2)nc2ccccc12)c1ccc(Br)cc1	9%
CC1(C)CC(=O)C2=C(C1)N(Cc1cccnc1)C(=O)C2(NC(=O)c1ccc(F)cc1)C(F)(F)F (centres undefined)	9%
NC(=O)C1CCN(C(=O)c2cccc3ccccc23)CC1	-3%
Cc1ccccc1NC(=O)c1ccc2c(O)c(S(=O)(=O)c3ccccc3)c(=O)[nH]c2c1	-19%&1%
O=C(Cn1cc(CNC(=O)C2CCCCC2)nn1)Nc1cc(C(F)(F)F)ccc1Cl	-4%
CCN(CC)S(=O)(=O)c1ccc(-c2csc(=Nc3cccc(C(F)(F)F)c3)n2Cc2ccc3c(c2)OCO3)cc1	-16%
Cc1ccc(-c2nnc(Nc3ccc(C(N)=O)cc3)c3ccccc23)cc1S(=O)(=O)N1CCCCC1	-4%
O=S(=O)(Nc1ccc(S(=O)(=O)N2CCCC2)cc1)c1ccccc1Br	-8%
Cc1cc(Cl)ccc1NC(=O)CCC(=O)N/N=C/c1cc([N+](=O)[O-])ccc1O	-7%
O=C(Nc1ccccc1Cl)N1CCC(CN2CCCC2)CC1	7%
CC(=O)N1CCSc2ccc(S(=O)(=O)NCc3ccc(F)cc3)cc21	-9%
CCOC(=O)C1=C[C@@]2(CC)CCCN3CCc4c(n1c1ccccc41)[C@H]32	?
CN(CCCNC(=O)Cn1cccc1C(=O)c1ccccc1)C1CCCCC1	6%
CCCCSCCCNC(=O)C1CCC(CNS(=O)(=O)c2ccc(NC(C)=O)cc2)CC1 (centres undefined)	-12%
Cc1cccc(CNc2nc(-c3ccoc3)nc3ccccc23)c1	?
Nc1ccccc1C(=O)C[C@H](N)C(=O)O	-1%&13%
CC(C)NC(=O)c1onc(CSc2ccc(F)cc2)c1C(=O)NC(C)C	-16%
COc1cc(NC(=S)N2c3ccccc3CC2C)cc(OC)c1 (centres undefined)	6%
COc1ccc(N2CCN(C(=O)CCCOc3cc(=O)n(C)c4ccccc34)CC2)cc1	-2%
Cc1nn(-c2ccccc2)c(C)c1NC(=O)COC(=O)C1CC(=O)N(CCc2ccccc2)C1 (centres undefined)	-12%
O=C(CCCCCn1c(=S)[nH]c2ccccc2c1=O)NCc1ccc2c(c1)OCO2	-2%
(cont.)
SMILES	VDR inhibitor
CCNC(=S)N/N=C/c1cn(Cc2ccc(F)cc2)c2ccccc12	0%
CCn1c(C)c(C2N3CC4(C)CN2CC(CC)(C3)C4=O)c2ccccc21 (centres undefined)	3%
Cc1ccc(CN2CCN(c3ccccn3)CC2)s1	-10%
COc1ccccc1NC(=O)C1=C(C)Nc2nc(SCc3ccccc3F)nn2C1c1cccs1 (centres undefined)	-28%
O=C(NCCSCc1ccc(Cl)cc1)C1CCN(S(=O)(=O)Cc2ccccc2)CC1	2%
CCCc1nn2c(=O)cc(CSCC(=O)Nc3nnc(C(C)C)s3)nc2s1	-5%
COc1cccc(/C=C/C(=O)NCCc2ccc3c(c2)OCCO3)c1	-10%
C=CCN1C(=O)c2ccc(C(=O)N3CCN(S(=O)(=O)c4cccc([N+](=O)[O-])c4)CC3)cc2C1=O	-12%
COc1cccc(C2CC(=O)Nc3cc(OC)c(OC)cc32)c1 (centres undefined)	3%
O=C(c1csnn1)N1CCC[C@@]2(CCN(c3cccc(-c4ccccc4)c3)C2)C1	45µM*
COC(=O)c1ccc2c(=O)[nH]c(CSc3nc(-c4ccc(F)cc4)cs3)nc2c1	-10%
Cc1occc1C(=O)N=Nc1c(O)n(C)c2ccccc12	13%
O=C(Nn1cnnc1)c1cc(Cl)ccc1Cl	-22%
O=C(CN1C(=O)C2CCc3[nH]c4ccccc4c3C2C1=O)N1CCCC1 (centres undefined)	20%
COc1ccc(C2CC(c3cccs3)=NN2C(=O)CSc2nc3ccccc3o2)cc1 (centres undefined)	2%
Cc1ccccc1OCc1n(CC(=O)OC2CC(C)CCC2C(C)C)c2ccccc2[n+]1C (centres undefined)	0%&-4%
COc1ccc(-c2nc3c(Br)c(N)c(Br)cc3o2)cc1	-8%
CCc1ccccc1Nc1nc(N)nc(COC(=O)c2c(C)noc2C)n1	1%
COc1cc(/C=C2\SC(=S)N(CC(=O)O)C2=O)ccc1OS(=O)(=O)c1ccc(C)cc1	?
C=CCSc1nnc(NC(=O)C2CC(=O)N(Cc3ccc(C)cc3)C2)s1 (centres undefined)	2%
Cc1[nH]c(=S)c(C#N)c(-c2ccccc2)c1C(=O)Nc1ccccc1	-27%
CCOC(=O)N1CCN(C(=O)c2cc(COc3ccc4ncccc4c3)on2)CC1	-4%
COc1ccccc1CC(=O)NCc1ccc2c(c1)OCO2	-14%
C[C@H](CO)N1C[C@H](C)[C@@H](CN(C)S(=O)(=O)c2ccc(F)cc2)Oc2ccc(NC(=O)Cc3ccccc3)cc2C1=O	18%
O=C(COC(=O)Cc1ccsc1)NCc1ccc(Cl)cc1	42%[activator]
Next records.
SMILES	VDR inhibitor
COC(C)(C)c1cc(C(C)(C)C)nc(N)n1	10%
O=C(C1CCCN(S(=O)(=O)c2cccc3nonc23)C1)N1CCN(c2ccccc2F)CC1 (centres undefined)	-15%
O=[N+]([O-])c1ccc(Sc2cccc3cccnc23)c2cccnc12	-6%
Clc1ccc2nc(CN3CCCCC3)cn2c1	12%
O=C(CCCN1CCc2[nH]c3ccc(F)cc3c2C1)c1ccc(F)cc1	-2%
Cc1ccc(CCNC(=O)C2CCN(Cc3nc(-c4ccccc4C)oc3C)CC2)cc1	?
COc1ccc(CCNC(=O)CN(C)S(=O)(=O)c2ccc3c(c2)CCC(=O)N3)cc1OC	2%
CN(Cc1nc(-c2cccnc2)no1)S(=O)(=O)c1ccc(Br)cc1	-8%
C=CCn1c(Cc2ccccc2)nc2c(cnn2-c2ccccc2)c1=O	4%
CCC(=O)Nc1sc2c(c1C(N)=O)CCN(Cc1ccccc1)C2	1%
CCC(=NNC(=O)c1ccc2c(c1)nc(C)n2CC)c1cc(F)ccc1O	-12%
COC(=O)[C@]1(C)N[C@H](CN(C)C(=O)c2ccc(C(C)(C)C)cc2)[C@@H]2C(=O)N(C)C(=O)[C@@H]21	-14%
COc1ccc(CNC(=O)c2c(O)c3ccccc3n(C)c2=O)cc1OC	4%
Cc1nn(Cc2ccc(C(=O)N3N=C(C(F)F)CC3(O)C(F)F)o2)c(C)c1[N+](=O)[O-] (centres undefined)	-18%
CCOc1ccc2cc(S(=O)(=O)N3CCN(C)CC3)ccc2c1	-9%
Cc1ccc(NC(=O)Nc2c(C)n(C)n(-c3ccccc3)c2=O)cc1C	?

Of the compounds above, these have a Cl atom:
SMILES	VDR inhibitor
CCOC(=O)c1cc(-c2ccc(OC)c(S(=O)(=O)NCc3ccccc3Cl)c2)on1	-9%
O=C1[C@H](Cc2ccccc2)NCC=CC[C@H](c2ccc(Cl)cc2)N1Cc1ccc(Cl)cc1	-3%
O=C(NCCC1=CCCCC1)c1ccc(Cl)c(S(=O)(=O)N2CCCCC2)c1	19%
Cc1nc2ccsc2c(=O)n1-c1cccc(Cl)c1	5%
O=C(Cn1cc(C(F)(F)F)ccc1=O)N1CCN(S(=O)(=O)c2ccc(Cl)cc2)CC1	-11%
Fc1ccccc1Cc1noc(CN2CCN(c3ccc(Cl)cn3)CC2)n1	-9%
CCOc1ccc(CNC(=O)Cn2nc(C)c3nn(-c4ccc(Cl)cc4)c(C)c3c2=O)cc1OC	17%
CN1CCN(C(=S)NC(=O)/C=C/c2ccccc2Cl)CC1	-12%
CCCCC1=CC2=CC(=O)C(C)(OC(=O)c3ccc(Cl)nc3)C(=O)C2=CO1 (centres undefined)	-26%
O=C(Cn1cc(CNC(=O)C2CCCCC2)nn1)Nc1cc(C(F)(F)F)ccc1Cl	-4%
Cc1cc(Cl)ccc1NC(=O)CCC(=O)N/N=C/c1cc([N+](=O)[O-])ccc1O	-7%
O=C(Nc1ccccc1Cl)N1CCC(CN2CCCC2)CC1	7%
O=C(NCCSCc1ccc(Cl)cc1)C1CCN(S(=O)(=O)Cc2ccccc2)CC1	2%
O=C(Nn1cnnc1)c1cc(Cl)ccc1Cl	-22%
O=C(COC(=O)Cc1ccsc1)NCc1ccc(Cl)cc1	42%[activator]
Clc1ccc2nc(CN3CCCCC3)cn2c1	12%
